Mtb growth: Mycobacterium tuberculosis H37Rv growth inhibition, cell based, confirmatory dose response (AID 1949) | 100,000 compounds, 1.6% hits | most inactive calls were filed without a number and no value below 0 was filed | inhibition, % at 10 µg/mL; hits with a dose series show IC50 in µg/mL;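 active = confirmed in a dose series; inconclusive = about 50% or more but not retested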;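 also: bacteria grown 7 days with compound before Alamar blue readout; 0% = untreated bacteria and 100% = reference antibiotic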
The depositor's hits bear a star; i = inactive; ? = inconclusive. Some of the compounds tested; count on the stated rates, not on these rows.

Sample of the layout (4 entries):
SMILES	Mtb growth
O=C1CC(N2CCN(Cc3ccc4c(c3)OCO4)CC2)C(=O)N1c1ccc(Oc2ccccc2)cc1 (stereo not given)	i
COc1ccccc1NC(=O)Cn1nc(-c2ccc(Cl)cc2)c2ccccc2c1=O	34.8%
O=C1NN=C(c2ccccc2)CC1c1c[nH]c2ccccc12 (stereo not given)	2.2%
O=C(NCc1ccccc1)C(=S)NCc1ccccc1	i

This part in full, repeating the preview:
SMILES	Mtb growth
O=C1CC(N2CCN(Cc3ccc4c(c3)OCO4)CC2)C(=O)N1c1ccc(Oc2ccccc2)cc1 (stereo not given)	i
COc1ccccc1NC(=O)Cn1nc(-c2ccc(Cl)cc2)c2ccccc2c1=O	34.8%
O=C1NN=C(c2ccccc2)CC1c1c[nH]c2ccccc12 (stereo not given)	2.2%
O=C(NCc1ccccc1)C(=S)NCc1ccccc1	i
CC(C)CCN1C(=O)c2ccc([N+](=O)[O-])cc2C1=O	i
CC(C)Sc1nc2c([nH]1)c(=N)ncn2Cc1ccccc1	1.0%
Cc1cc(Nc2ccccc2)nc(-c2ccccc2O)n1	15.5%
O=C1C(=O)N(CC(=O)N2CCCC2)c2ccccc21	i
CCOc1ccc(C(F)(F)F)cc1NC(=O)Nc1cccc(Cl)c1	i
Clc1cccc(CCNCc2cccnc2)c1	i
CCOC(=O)c1sc2nc(N3CCCC3)c3c(c2c1N)CC(C)(C)OC3	i
COc1cc(S(=O)(=O)NCCN2CCOCC2)c(OC)cc1Cl	i
Oc1ccc(Cl)cc1Nc1ncnc2ccc(Br)cc12	i
CC(=O)Nc1ccc(OC(=O)c2ccccc2NC(=O)c2ccccc2Br)cc1	i
Cc1cc(C(F)(F)F)nc2sc(C(=O)c3cccc(Cl)c3)c(N)c12	10.3%
O=C(Oc1cccc(Nc2ncnc3ccccc23)c1)c1ccccc1Cl	44.0%
COC(=O)c1ccccc1-c1ccc(/C=C(/C#N)c2nc3ccccc3s2)o1	i
COc1ccc(Cl)cc1Nc1nc(-c2ccc(O)c(O)c2)cs1	1.8%
Cc1noc(C)c1CSc1nc2[nH]ncc2c(=O)n1-c1ccccc1	i
O=S(=O)(/N=C(/Nc1cccc2ccccc12)c1ccccc1)c1cccs1	i

Shown field by field: part of the list above
CC(C)CCN1C(=O)c2ccc([N+](=O)[O-])cc2C1=O
  Mtb growth = i
O=C(Oc1cccc(Nc2ncnc3ccccc23)c1)c1ccccc1Cl
  Mtb growth = 44.0%
O=C1C(=O)N(CC(=O)N2CCCC2)c2ccccc21
  Mtb growth = i
COc1cc(S(=O)(=O)NCCN2CCOCC2)c(OC)cc1Cl
  Mtb growth = i

(listing goes on)
SMILES	Mtb growth
CC(CCc1ccccc1)NC(=O)C(=O)N1CCOCC1 (stereo not given)	i
CS(=O)(=O)c1ccc2nc(NC(=O)c3sc4ccccc4c3Cl)sc2c1	i
COC(=O)c1cc(OC)c(OC)cc1NC(=O)Cc1ccccc1OC	i
O=C(c1cccc(C(F)(F)F)c1)N1CCCC1	i
O=C(NCc1ccc(N2CCCC2=O)cc1)c1cccc(Cl)c1	i
CCn1c(CNC(=O)c2ccc(Cl)cc2Cl)nnc1SCC(=O)Nc1cc(Cl)c(Cl)cc1Cl	i
CC(CNC(=O)c1cc2ccccc2oc1=O)NC(=O)c1cc2ccccc2oc1=O (stereo not given)	i
Cc1oc2c(C)c(O)ccc2c(=O)c1N1C(=O)c2ccccc2C1=O	0.7%
Cc1cc(=O)oc2cc(OCC(=O)Nc3sc4c(c3C#N)CCC4)ccc12	i
Oc1ccc(-c2n[nH]c(=S)n2-c2cccc3ccccc23)c(O)c1	1.6%
NCCSC1CC(=O)N(c2cccc(Cl)c2)C1=O (stereo not given)	i
O=C(NCCCO)c1ccc2snnc2c1	i
CCOC(=O)c1ccc(NC(=S)NC(=O)c2cc(OCC)cc(OCC)c2)cc1	i
O=Cc1cccn1-c1cccc(Br)c1	i
O=C(Nc1ccc(CN2CCCCC2)cc1)c1ccc2ccccc2c1	33.1%
O=c1[nH]c(SCc2ccc(Cl)cc2Cl)nc2ccccc12	i
CN(CC(=O)NC1CCCC1)S(=O)(=O)c1ccc(Br)cc1	i
NS(=O)(=O)c1ccc(NC(=S)NCCCN2CCOCC2)cc1	i
O=C(Nc1cccc(-c2nnc(-c3ccccc3)o2)c1)c1ccccc1Br	1.7%
CN(C(=O)Oc1ccc(OC(=O)N(C)c2ccccc2)cc1)c1ccccc1	i
CCc1cc2c(NC(C(=O)O)C(C)C)ncnc2s1 (stereo not given)	i
Cc1cc(NC(=O)COc2ccc(Cl)cc2)no1	33.1%
CC(C)NC(=O)C(=O)Nc1cccc(C(F)(F)F)c1	3.6%
COC(=O)c1ccc(C(=O)OC)c(NC(=O)c2ccc(C(C)C)cc2)c1	i
Cc1ccccc1NC(=O)c1sc(NC(=O)C2(C)CC2(Cl)Cl)c(C(=O)OC(C)C)c1C (stereo not given)	1.5%
O=c1cc(-c2ccccc2)[nH]n1-c1ccccc1Cl	i
CCOC(=O)Cn1cnc2ccccc2c1=O	i
Cc1ccc(-n2c(SCC(=O)NCC3CCCO3)nnc2-c2ccncc2)cc1C (stereo not given)	i
COc1ccc(C(=O)CCC(=O)Nc2ccccc2F)cc1	i
Cn1c(Cc2cccs2)nnc1SCC(=O)c1ccc(Cl)cc1	i
Cc1c(C=O)c2ccccc2n1CC(=O)NC1CCCCC1	i
Cc1nc(C)c(C(=O)O)c(-c2ccc(F)cc2)c1C(=O)O	i
NC(=O)c1ccc(CN2CCc3ccccc3C2)cc1	0.6%
O=C1c2ccccc2C(=O)N1CCc1nc2c3c4c(sc3ncn2n1)CCCC4	i
COc1ccc(N2CC(C(=O)NCCCN3CCOCC3)CC2=O)cc1 (stereo not given)	i
CN(C)c1nc(=S)nc(NCc2ccccc2)[nH]1	49.3%
CCOC(=O)c1c(NC(=O)CS(=O)(=O)Cc2ccccc2)sc2c1CCCC2	i
CCc1cc2c(=O)c(-c3nc4ccccc4[nH]3)coc2c(CN2CCCC(C)C2)c1O (stereo not given)	i
COCCNC(=S)NNC(=O)CSCc1ccccc1Br	i
CCCCc1ccc(NC(=O)CS)cc1	48.3%
CCOCC(=O)Nc1cc(S(=O)(=O)N(CC)CC)ccc1OC	i
Cc1cc(=O)[nH]c(SCc2ccccc2F)n1	i
COc1ccc(CCNCc2ccc(C)cc2)cc1OC	i
O=C(C1CCN(CC2CC=CCC2)CC1)N1CCN(C/C=C/c2ccccc2)CC1 (stereo not given)	5.0%
Cc1c(C(=O)Nc2c(F)cc(F)cc2Br)oc2ccccc12	17.0%
O=C1CC(n2cnc3ccccc32)C(=O)N1c1ccc(Cl)c(Cl)c1 (stereo not given)	i
COc1ccc(S(=O)(=O)N2c3ccc(F)cc3CCC2C)cc1 (stereo not given)	i
CCOc1cc(CNC)ccc1OCCO	3.1%
CCOC(=O)CS(=O)(=O)c1nc(-c2ccccc2)cc(C(F)(F)F)n1	3.8%
CCOc1ccc(NC(=O)CCC(=O)O)c([N+](=O)[O-])c1	i

The list goes on:
SMILES	Mtb growth
O=C(NC1CC2CCC1C2)c1ccc(F)cc1 (stereo not given)	i
Cc1cc(C)c(S(=O)(=O)Nc2ccc(S(=O)(=O)N3CCCCC3)cc2)c(C)c1	i
CN(C)CCCNC(=O)CCSc1ccccc1	i
CCCCc1ccc(S(=O)(=O)NNC(=S)Nc2ccc(F)cc2F)cc1	i
O=C(NC(Cc1ccccc1)C(=O)NCc1cccnc1)c1ccccc1 (stereo not given)	i
Cc1ccc(-n2c3c(cc(C(=O)Nc4ccc(C#N)cc4)c2=O)C(=O)CC(C)(C)C3)cc1	0.0%
CCCC(C)c1nnc(NC(=O)CC(C)(C)C)s1 (stereo not given)	i
S=c1[nH]nc(-c2ccccc2Cl)n1CCc1ccccc1	1.0%
COc1ccc(S(=O)(=O)N2CCC(C(=O)NCCC3=CCCCC3)CC2)cc1Cl	i
O=C(Nc1ccc2oc(=O)ccc2c1)c1ccccc1I	i

As entered above.
Entry of `Cc1ccc(-n2c3c(cc(C(=O)Nc4ccc(C#N)cc4)c2=O)C(=O)CC(C)(C)C3)cc1` in Mtb growth: 0.0%
Entry of `S=c1[nH]nc(-c2ccccc2Cl)n1CCc1ccccc1` in Mtb growth: 1.0%

Following part:
SMILES	Mtb growth
O=C(CCCN1C(=O)c2ccccc2C1=O)Oc1ccc(Cl)cc1	i
C=CCS(=O)(=O)Nc1ccc(OC)cc1	1.6%
NC(=O)C1(N2CCCCC2)CCN(CC(=O)Nc2ccccc2Sc2ccccc2)CC1	1.8%
COc1ccc(CCC(=O)Nc2ccc(OC)cc2)cc1	i
COC(=O)C(C)Oc1ccc2c(=O)c(-c3ccc(Br)cc3)c(C)oc2c1 (stereo not given)	2.42µg/mL*
COC(=O)c1ccc(COC(=O)c2ccc(OC)c(OC)c2)cc1	?
Cn1c(SCC(=O)N2c3ccccc3SC3C=CC=CC32)nnc1-c1ccccc1 (stereo not given)	4.0%
c1ccc(Cn2c(SCCN3CCOCC3)nc3ccccc32)cc1	i
COc1ccc(CCNC(=O)c2ccc(Cl)c(S(=O)(=O)N3CCOCC3)c2)cc1OC	i
C=CCNC(=O)c1ccccc1NC(=O)CN(c1ccc(C)c(C)c1)S(C)(=O)=O	1.3%
Cc1cc(Br)c(NC(=O)CSc2nccc(=O)[nH]2)cc1C	i
Cc1sc2ncnc(SCC(=O)Nc3ccccc3Cl)c2c1C	i
Cc1nc2ccc(I)cc2c(=O)n1-c1ccc(Cl)cc1	0.2%
CCOc1cccc(C(=O)NC(C)c2ccc(OC)cc2)c1 (stereo not given)	i
Cc1cc(NC(=O)c2cncc(Br)c2)ccc1NC(=O)c1cc2ccccc2o1	i
COC(=O)Nc1sccc1C(=O)Nc1sccc1C(=O)OC	i
CC(=O)OCC(=O)c1ccc(Oc2ccc([N+](=O)[O-])cc2)cc1	i
COCC(=O)NNC(=S)Nc1ccc(Cl)c(Cl)c1	i
O=S(=O)(Nc1ccc(S(=O)(=O)N2CCCC2)cc1)c1ccc2c(c1)OCCO2	i
CCc1ccc(NC(=O)c2ccccc2NC(=O)C2CCCO2)cc1 (stereo not given)	i
CCC(=O)c1c(CC)nn2c3ccccc3n(C)c12	1.4%
Cc1cc(C(=O)c2ccccc2)ccc1OC(=O)CN1C(=O)c2ccccc2C1=O	1.6%
CN1CCN(c2ccc(NC(=O)Cc3ccccc3)cc2Cl)CC1	i
Cc1ccc2oc(=O)n(CC(=O)OC(C)C)c2c1	i
CC(C)N1C(=O)C2ON(c3ccc(Cl)cc3)C(c3cc(Br)ccc3O)C2C1=O (stereo not given)	i
Cc1ccc(S(=O)(=O)Nc2cc(Sc3ncn[nH]3)c(O)c3ccccc23)c(C)c1	?
O=C(O)c1cccc(NC(=S)NC(=O)c2ccccc2Br)c1	i
COc1ccc(NC(=O)c2ccc(NC(=O)c3ccc(Cl)cc3Cl)cc2)cc1	5.8%
O=C(NCC(O)CN1CCOCC1)c1ccc([N+](=O)[O-])cc1 (stereo not given)	i
COc1cc(NC(=S)NC(=O)c2cc3ccccc3o2)ccc1NC(=O)C(C)C	i
CS(=O)(=O)N(CC(=O)N1CCN(Cc2ccccc2)CC1)c1cc(Cl)ccc1Cl	i
CCC(C)c1ccc(OCC(=O)Nc2ccc(NC(=O)c3ccco3)cc2)cc1 (stereo not given)	0.7%
COc1cccc(-c2cc(C(F)(F)F)c3c(n2)oc2onc(N)c23)c1	i
O=C1CC(c2ccccc2)N=C(SCC(=O)Nc2ccc3ccccc3c2)N1 (stereo not given)	0.3%
O=C(Nc1nnc(CSCc2cccc(Br)c2)s1)C1CCCCC1	i
Cc1nc(NC(=O)c2c(Cl)cccc2Cl)sc1C(=O)N(C)C	5.5%
CCc1ccc(-c2csc(Nc3ccc(O)cc3)n2)cc1	i
CNC(=O)CN(c1ccccc1)S(=O)(=O)c1ccc(F)cc1	i
COc1cccc(-c2cc(C(=O)N3CCOCC3)c3ccccc3n2)c1	i
CCn1c(SCC(=O)N2CCN(C(c3ccccc3)c3ccccc3)CC2)nc2ccccc2c1=O	4.9%
COc1cccc2cc(C(=O)Nc3scc(-c4ccc(F)cc4)c3C(=O)OC(C)C)c(=O)oc12	i
Cc1ccc(-c2csc(NC(=O)CSc3nnc(C)s3)n2)cc1	i
Cc1cccc(C(C)C)c1NS(=O)(=O)c1ccc(F)cc1	1.9%
Nc1cc(=O)[nH]c(SCc2ccc(F)cc2)n1	1.0%
CCNc1cc(N2CCN(S(=O)(=O)c3ccc(Cl)c(Cl)c3)CC2)ccc1[N+](=O)[O-]	i
O=C(CN1CCN(c2ccc([N+](=O)[O-])cc2)CC1)c1ccccc1	i
CCOC(=O)c1c(C)n(C)c2ccc(OC(=O)c3ccccc3Br)cc12	?
CN(c1ccccc1C(=O)NC(C)(C)C)S(C)(=O)=O	i
COCCNC(=O)c1ccc(N(C)S(=O)(=O)c2ccccc2)cc1	i
COCCCNC(=S)Nc1ccc(C)cc1Br	i

(continued)
SMILES	Mtb growth
CNC(=O)CN(c1cc(OC)ccc1OC)S(=O)(=O)c1ccccc1	i
CC(NC(=O)c1cccs1)c1nnc(SCC(=O)Nc2ccc(F)cc2)n1C (stereo not given)	i
Clc1cc(Br)ccc1OCCCCn1ccnc1	1.11µg/mL*
COc1ccc(S(=O)(=O)N(CC(=O)Nc2ccc(F)cc2F)c2ccccc2)cc1OC	i
CCOCc1nnc(NC(=O)c2ccc(OC)cc2)s1	i
O=C(NC(=S)NCc1ccccc1)c1ccc(Br)o1	i
Cc1ccc(C(=O)NC(=S)Nc2ccccc2C(N)=O)cc1[N+](=O)[O-]	i
Cc1cccc(NC(=S)NC2CCCCCC2)c1C	6.4%
Cn1c(=O)n(C)c2cc([N+](=O)[O-])c(N3CCN(CCO)CC3)cc21	i
COc1ccccc1N1CCN(c2ccc(C(F)(F)F)cn2)CC1	1.4%
CCc1ccccc1N(CC(=O)Nc1cccc(C(=O)OC)c1C)S(C)(=O)=O	i
